Assay outcomes (PubChem BioAssay)
Mtb hypoxia inh: reduces hypoxia-regulated biosensor signal in M. tuberculosis. M. tuberculosis hypoxia-regulated fluorescent reporter, fluorescence. fluorescence inhibition, % (no concentration beside the values). actives 0.1% (n = 300,000). AID 1159583;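 active = 35 to 45% if threefold the growth effect, above 45% if 1.5-fold the growth effect; inactive = the rest, general growth blockers included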;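 also: wells of about 50 µL received 100 nL stock; 0% = vehicle wells and 100% = reference inhibitor wells; whole bacteria with a GFP reporter of the hypoxia response; strong numbers were not always called active; many hits fall short of the cut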
ugtP null kill: compounds lethal to S. aureus RN4220 ugtP deletion mutant; AID 1259309; OD600 growth, 16 h; some inactives read as strong as hits; actives 0.54% (n = 330,000); growth inhibition, % (no concentration beside the values);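 active = z-score under -3 and OD600 up to 0.15 on both plates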;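 also: plate controls were untreated wells for no effect and antibiotic for full effect; wells of about 80 µL received 100 nL stock; the first replicate is given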
Sa RN4220 lethal: kills Staphylococcus aureus RN4220; inhibition, % (test concentration not listed); actives 0.33% (n = 330,000); S. aureus RN4220 growth, OD600, 16 h;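 active = z-score of -3 or lower and OD600 up to 0.18 on both plates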;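 also: plate controls were untreated cells for no effect and reference antibiotic for full effect; stock transfer was 100 nL into about 80 µL; one replicate is shown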
BJeLR lethal: kills HRASV12-expressing BJeLR cells; AID 1554; inhibition, % (no concentration beside the values); actives 0.17% (n = 300,000); BJeLR (HRASV12) viability, CellTiter-Glo ATP luminescence, 48 h; reference of the scale not given here;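 active = replicate mean above 50%; inconclusive = above 50% but judged a plate artefact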;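 also: 50 nL library stock added to about 25 µL; numbers are from one replicate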
PrP 5UTR inh: suppresses PrP 5' UTR mRNA reporter expression. cell-based PrP 5' UTR mRNA reporter, plate reader. inhibition, % (concentration not given with the values). actives 0.35% (n = 340,000);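 active = every replicate at 50% or more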;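 also: 0 = median of the neutral control wells; tested in H4 reporter cells; numbers are from one replicate; inactives centre near -14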
Autofluor counter: counter-screen for toxin protease inhibitors: compound fluorescence; AID 624483; fluorescence intensity (no concentration beside the values); compound autofluorescence counterscreen, microsphere flow cytometry; active compounds read high; actives 3.1% (n = 360,000);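 active = at least 3 SD above the mean of all compounds, about 16000 in these data; inconclusive = too few beads counted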;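 also: 100 nL of 1 mM stock went into each well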
Mtb hypoxia inh growth: further read-out of Mtb hypoxia inh, marked with its call; growth inhibition, %; measured here: M. tuberculosis growth (absorbance);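 0% = vehicle and 100% = reference antibiotic; read after six days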
* hit, by the source's call; ? = inconclusive; nt = no result given.

Screens in order – Mtb hypoxia inh	Mtb hypoxia inh growth	ugtP null kill	Sa RN4220 lethal	BJeLR lethal	PrP 5UTR inh	Autofluor counter
> CCCOc1ccc(C(=O)c2nc3c(n2O)CCCC3)cc1
→ 14.4	4.6	-6.3	2.3	3.6	-11.5	22563*
> CC(=O)c1cccc(NC(=S)NC2CC2)c1
→ 4.8	-3.3	8.0	4.8	10.2	-7.8	2418
> COc1cc(S(=O)(=O)N(Cc2ccccc2)CC2CCCO2)ccc1-n1cnnn1 (stereo unspecified)
→ 3.8	5.7	5.3	8.7	7.3	-10.3	4500
> O=C(CN1C(=O)NC2(CCCCC2)C1=O)N1CCN(S(=O)(=O)c2ccc(F)c(F)c2F)CC1
→ 6.2	2.4	2.0	4.2	nt	-19.6	5619
> OC(c1ccccn1)C(O)c1ccccn1 (stereo unspecified)
→ 6.1	-0.8	4.9	1.4	nt	-12.1	3960
> Clc1ccc(CSc2snnc2-c2ccccc2)c(Cl)c1
→ 14.8	-2.5	0.3	9.9	-13.5	-53.3	?
> O=C(NCc1ccccn1)c1cccc(S(=O)(=O)Nc2ccc(SC(F)F)cc2)c1
→ 11.3	-1.0	10.0	2.1	5.1	-12.5	5452
> Cc1cc(C)nc(N=C(NC(=O)C(C)(C)C)Nc2ccc(F)cc2)n1
→ 0.0	1.0	-4.6	2.6	nt	nt	nt
> Cc1ccc(C(=O)C(C)OC(=O)C2CC(=O)N(C3CCCCC3)C2)cc1 (stereo unspecified)
→ 11.2	12.3	0.2	7.3	-1.6	-17.0	6093
> COc1ccccc1NC(=O)c1ccc(NC(=O)CSc2ncn[nH]2)cc1
→ 4.0	3.2	-3.0	2.7	-2.2	-4.0	1919
> N=c1c2c(ncn1Cc1ccco1)Oc1ccc3ccccc3c1C2c1ccccc1 (stereo unspecified)
→ 5.7	5.8	-20.3	25.4	-1.4	-7.2	2279
> Cc1ccccc1-n1nnnc1SCC(=O)c1c(N)n(C)c(=O)n(C)c1=O
→ 9.5	6.6	4.8	3.6	-0.4	-14.9	4473
> CC(NC(=O)CSc1ncccn1)c1ccc2c(c1)OCO2 (stereo unspecified)
→ 0.6	-1.3	-2.0	0.2	nt	-3.6	2831
> CC(=O)c1sc(NS(=O)(=O)c2ccc(C)cc2)nc1-c1ccccc1
→ -1.8	1.1	18.0	-4.5	1.6	-2.3	5687
> COc1ccccc1C(=O)Nc1cccc(C(=O)N2CCOCC2)c1
→ -3.5	6.9	-4.9	0.2	2.9	-6.0	5113
> COc1cccc(CN2CCNC(=O)C2CC(=O)N(C)C2CCOCC2)c1OC (stereo unspecified)
→ -2.4	-1.0	14.8	4.3	-0.1	-20.3	5694
> CC(=O)N1CCN(Cc2nc3cc(NC(=O)Cn4nc(C)c5ccccc5c4=O)ccc3n2C)CC1
→ -2.1	1.9	-4.0	-2.7	-7.0	nt	9828
> NS(=O)(=O)c1ccc(NNC(=O)c2sccc2Cl)cc1
→ nt	nt	nt	nt	0.5	-27.3	3586
> O=C(Cc1ccccc1)N1CCC(O)(c2cccnc2)CC1
→ 2.2	6.3	5.4	5.1	-3.6	0.0	4471
> O=c1c2cc(N3CCOCC3)ccc2[nH]c(=S)n1Cc1ccc(Cl)cc1
→ -1.2	-0.5	9.6	1.2	1.3	-40.9	16514*
> COc1cc(C)c(NC(=S)Nc2cccc(Cl)c2)cc1OC
→ 11.4	8.5	-2.2	1.4	-0.7	-18.5	1991
> CC(=O)c1ccc(NC(=O)c2cnn3ccccc23)cc1
→ 6.0	9.4	0.0	-9.6	-9.0	16.7	6475
> Brc1cccc(-c2nnc3n2CCC3)c1
→ 7.2	4.1	0.4	0.1	1.3	-24.8	10326
> CC(=O)Nc1ccccc1Sc1ccccc1
→ 8.7	3.7	-2.4	6.2	-9.0	-28.5	11906
> O=C(NCCc1c[nH]c2ccccc12)c1ccc(F)cc1F
→ 6.8	5.6	0.2	1.7	-4.1	-33.8	3789
> COc1cc(C=NNC(=O)c2ccc(NS(=O)(=O)c3cccs3)cc2)cc(Br)c1O
→ -1.9	10.7	6.4	-0.2	nt	4.0	3564
> c1ccc(C2CNCCc3ccccc32)cc1 (stereo unspecified)
→ 2.6	-2.0	4.6	0.1	-5.5	-27.3	4227
> O=C(/C=C/c1ccccc1[N+](=O)[O-])N1CCN(c2ccccc2F)CC1
→ 14.9	0.9	8.5	7.4	-6.6	-30.1	2165
> CC1=CC(c2ccccc2)n2nnnc2N1 (stereo unspecified)
→ -9.0	4.5	-5.8	-4.4	9.8	-17.3	nt
> CCn1c(=O)cc(SCC(=O)NCc2ccc(C)o2)c2ccccc21
→ 5.0	6.1	-2.7	5.3	-0.9	-50.7	8799
> O=C(NCCc1ccccc1)/C(=N\O)c1ccccc1
→ nt	nt	nt	nt	4.8	-101.6	2709
> Cc1nonc1C(=O)N/N=C/c1cc2c(cc1Br)OCO2
→ nt	nt	nt	nt	2.8	-13.2	1934
> CCOC(=O)c1csc(NC(=O)CCSc2ccccc2)n1
→ 10.5	0.2	0.5	4.8	-10.3	9.6	4438
> COc1ccccc1N1CCN(C(=O)c2cc(=O)c3c(C)cc(C)cc3o2)CC1
→ -5.5	-1.5	3.8	2.6	-4.8	-9.7	2974
> O=C(NC(c1ccccc1)C1CC1C(=O)NCc1ccccn1)OCc1ccccc1 (stereo unspecified)
→ 17.1	4.0	1.0	3.9	nt	nt	nt
> Cc1cccc(-n2c(SCC(=O)NCc3ccco3)nnc2-c2ccco2)c1
→ 5.3	-2.0	0.6	-0.7	2.0	-24.2	7333
> O=C(Nc1ccc(S(=O)(=O)Nc2ncccn2)cc1)C1CC(=O)N(c2ccc(Cl)cc2)C1 (stereo unspecified)
→ 17.5	10.0	0.6	0.9	1.1	-6.7	3508
> O=C(CN1CCc2ccccc21)NC(=O)NCc1ccco1
→ -1.7	2.2	-2.8	-0.5	-18.2	-16.0	8626
> C=CCOC(=O)c1cn(CC)c2nc(C)ccc2c1=O
→ 4.9	10.3	-0.3	-1.5	-10.5	-5.8	4320
> CN(C)S(=O)(=O)c1ccc(Cl)c(NC(=O)COC(=O)CCSc2ccccc2)c1
→ 3.2	7.9	-3.5	1.5	6.2	-3.8	2016

Random excerpt: 2 records from the list.
Screens in order – Mtb hypoxia inh	Mtb hypoxia inh growth	ugtP null kill	Sa RN4220 lethal	BJeLR lethal	PrP 5UTR inh	Autofluor counter
> O=C(NC(c1ccccc1)C1CC1C(=O)NCc1ccccn1)OCc1ccccc1 (stereo unspecified)
→ 17.1	4.0	1.0	3.9	nt	nt	nt
> O=C(/C=C/c1ccccc1[N+](=O)[O-])N1CCN(c2ccccc2F)CC1
→ 14.9	0.9	8.5	7.4	-6.6	-30.1	2165

Next section.
Screens in order – Mtb hypoxia inh	Mtb hypoxia inh growth	ugtP null kill	Sa RN4220 lethal	BJeLR lethal	PrP 5UTR inh	Autofluor counter
> Cc1occc1-c1nnc(SCC(=O)N2CCOCC2)n1CCc1ccccc1
→ nt	nt	-8.0	0.2	-5.6	-19.8	4038
> COC(=O)C1=C(c2ccc(S(C)(=O)=O)cc2)CC2CCC1N2C(=O)NCCCOC(C)C (stereo unspecified)
→ 12.7	8.2	1.5	0.2	nt	nt	nt
> CC(C)c1ccc(NC(=O)CNC(=O)Cn2cnc3ccccc3c2=O)cc1
→ 7.6	11.0	-7.5	-0.8	0.6	-4.1	2180
> CCOC(=O)c1c(N)n(Cc2ccco2)c2nc3ccccc3nc12
→ 0.1	8.5	-10.1	-4.2	nt	-12.3	6373
> CCC1=NN(C(=O)CCc2ccccc2)C(O)(C(F)(F)F)C1 (stereo unspecified)
→ 4.4	5.5	-0.3	6.7	7.0	-13.6	9265
> COc1cc2ccccc2cc1C(=O)N/N=C/c1ccc2c(c1)OCO2
→ nt	nt	nt	nt	3.8	-7.4	?
> O=C(NCc1ccccc1)c1cncc(Br)c1
→ 25.0	25.7	-0.2	0.8	17.9	-45.7	10023
> O=c1c2c(nc3c(-c4ccc(Cl)cc4)c[nH]n13)CCCC2
→ nt	nt	0.4	-4.3	15.1	12.4	4220
> CCOC(=O)C1=C(C)Nc2ccccc2N/C1=N\S(=O)(=O)c1cccc(Cl)c1
→ 3.2	1.5	-2.5	10.4	nt	-22.5	?
> COc1cc(/C=C/C(=O)N2CCCc3ccccc32)cc(OC)c1OC
→ 3.2	10.1	1.5	1.6	3.5	-14.6	2539
> CCCOC(=O)C1=C(C)NC2=C(C(=O)CCC2)C1c1cc(OC)ccc1OC (stereo unspecified)
→ 2.0	0.1	2.5	4.6	-0.5	-10.8	15838
> COCCCC1CCN(C(=O)c2cc(COc3cc(C)ccc3C)on2)CC1
→ 7.5	-3.2	1.7	5.6	-1.3	-91.7	5036
> Cc1nc(SCC(=O)Nc2ccccc2Cl)c2c(C)c(C)sc2n1
→ 2.3	2.5	7.3	3.2	nt	17.6	2833
> CCOc1cc(C(=O)Nc2ccncc2)cc(OCC)c1OCC
→ 2.5	-1.4	3.2	3.0	-3.2	-27.5	4525
> O=C(CCNC(=O)c1ccc([N+](=O)[O-])cc1)NC1CCCCC1
→ 8.3	-16.7	1.7	0.7	nt	-9.7	6861
> COc1ccccc1-c1nnc(N(C)C(=O)C2CCCO2)s1 (stereo unspecified)
→ nt	nt	0.6	-0.9	4.8	-31.8	3210
> O=S1(=O)CCN(Cc2ccc(Cl)cc2)CC1
→ nt	nt	-3.0	3.7	8.0	-11.8	2633
> COc1ccc(C(=O)NC(=S)Nc2ccccc2F)cc1
→ 1.9	9.6	73.1	3.7	-8.0	-47.1	2052
> CCOC(=O)C1CCN(C(=O)c2ccc3c(c2)OCCO3)CC1
→ 10.9	8.1	8.3	3.7	nt	-30.6	4181
> Clc1ccc2nc(SCc3nnc(-c4ccccc4)o3)[nH]c2c1
→ -1.2	6.5	-3.3	5.1	2.6	-11.2	23021*
> CCOc1cc(NC(=S)NCC2CCCO2)c(OCC)cc1NC(=O)c1ccc(OC)cc1 (stereo unspecified)
→ 4.4	6.1	3.0	5.0	1.9	-15.9	2417
> CCC1(C)Cc2c(sc3nnn(CC(=O)Nc4ccccc4)c(=O)c23)CO1 (stereo unspecified)
→ 7.4	0.1	2.2	0.0	0.5	-10.8	15796
> CCc1ccc(Nc2ncc3c(n2)CC(c2ccc(OC)cc2)CC3=O)cc1 (stereo unspecified)
→ -0.3	10.6	10.4	4.9	-9.6	-23.1	8294
> COc1ccccc1NC(=O)NC1(C(=O)N2CCCCC2)CCCCC1
→ 0.9	-13.8	5.9	1.0	-5.5	-11.9	3460
> Cc1ccccc1CN1C(=O)C(C)SC1=NN=Cc1ccco1 (stereo unspecified)
→ 7.3	1.6	15.4	1.6	nt	nt	nt
> Cn1c(=O)[nH]c(=O)c2c1nc(NN)n2CCOc1ccccc1
→ 6.1	0.8	3.2	0.7	7.2	0.7	3469
> CC(=O)c1ccc(N(C(=O)Cn2nnc(-c3ccccc3)n2)C(C(=O)NC2CCCCC2)c2ccccn2)cc1 (stereo unspecified)
→ 10.5	0.1	14.8	2.4	-2.0	-20.7	2532
> COC(=O)c1ccc(NS(=O)(=O)N(C)C)cc1
→ -2.8	-3.7	1.9	-4.3	-9.0	-4.4	3630
